Mtb H37Rv = M. tuberculosis H37Rv growth inhibitors, H37Rv strain (AID 1626). M. tuberculosis H37Rv growth inhibition; higher % means a stronger effect. inhibition, % at 10 µM, or IC50 in µM where a hit was titrated. 220,000 compounds, 0.95% hits;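 active means confirmed in a dose series; inconclusive means inhibition above 80% but not taken into the dose series; inactive means below 80% or under 30% at every dose of the series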;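 further: bacteria incubated seven days before Alamar blue readout; 0% = bacteria only wells and 100% = bacteria with antibiotic wells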
RecA intein inh = Mtb RecA intein splicing inhibitors, primary screen, biochemical, fluorescence, HTS. Protein RecA (Mycobacterium tuberculosis (strain ATCC 25618 / H37Rv)), P9WHJ3. cell-free RecA intein splicing. inhibition, %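 (about 9 µM by stock and volumes)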. 290,000 compounds, 0.75% hits; in the data active means inhibition above about 30%; inconclusive means no clear call, values can overlap the other calls;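 further: 0% = vehicle wells and 100% = reference inhibitor control wells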
Target sequence (P9WHJ3 whole entry, looked up): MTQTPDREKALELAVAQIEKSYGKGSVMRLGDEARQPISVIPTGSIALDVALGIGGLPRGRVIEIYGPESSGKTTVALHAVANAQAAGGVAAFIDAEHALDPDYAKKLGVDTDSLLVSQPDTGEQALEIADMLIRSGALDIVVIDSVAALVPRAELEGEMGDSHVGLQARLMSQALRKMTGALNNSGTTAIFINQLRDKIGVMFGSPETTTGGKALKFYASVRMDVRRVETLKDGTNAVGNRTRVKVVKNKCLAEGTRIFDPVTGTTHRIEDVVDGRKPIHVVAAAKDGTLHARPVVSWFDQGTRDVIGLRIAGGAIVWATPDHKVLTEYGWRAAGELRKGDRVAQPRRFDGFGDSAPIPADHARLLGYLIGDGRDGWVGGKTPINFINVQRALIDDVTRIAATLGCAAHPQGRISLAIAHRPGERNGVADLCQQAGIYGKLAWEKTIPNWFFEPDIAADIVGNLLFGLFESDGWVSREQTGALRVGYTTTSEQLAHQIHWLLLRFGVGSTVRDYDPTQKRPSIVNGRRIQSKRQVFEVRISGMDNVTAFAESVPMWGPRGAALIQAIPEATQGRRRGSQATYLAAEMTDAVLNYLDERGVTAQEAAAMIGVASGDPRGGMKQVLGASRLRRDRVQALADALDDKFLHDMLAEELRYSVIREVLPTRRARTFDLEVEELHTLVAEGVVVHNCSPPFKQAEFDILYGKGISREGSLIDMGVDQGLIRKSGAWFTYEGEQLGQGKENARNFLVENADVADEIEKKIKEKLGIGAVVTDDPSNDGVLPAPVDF
Arbovirus anti = antivirals against arbovirus infection, primary screen, cell-based, full library, 10K replicate subset; inhibition, % at 10 µM; 200,000 compounds, 0.37% hits; arbovirus infection cell-based antiviral screen;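 active means inhibition from about 30%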;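 further: bluetongue infection of BSR cells; cell survival read as ATP light after 72 h; 0% = infected wells without compound and 100% = uninfected wells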
Mtb betalactam = beta-lactam sensitization of Mtb H37Rv, H37Rv; M. tuberculosis H37Rv growth with meropenem, percent inhibition; hits of this screen are not shown here; inhibition, % at 25 µM; 330,000 compounds, 0.27% hits; AID 434955, 2010;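 active means about 74% or more and at least 40 points above the plate without the antibiotic, then above 30% in a dose series; inconclusive means first-round hits that could not be retested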;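 further: growth measured after seven days incubation then overnight dye step; 0% = bacteria only wells and 100% = bacteria with antibiotic; twin plates without the antibiotic show which effects depend on it; some results filed as inactive read as strong as hits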
YopH inh = YopH tyrosine phosphatase inhibitors, primary screen, biochemical, fluorescence Ex485/Em525 | 140,000 compounds, 0.16% hits | AID 898, 2007 | inhibition, %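 (about 10 µM by stock and volumes)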;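 active means inhibition of 50% or more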;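 further: controls were vehicle for no effect and minimum signal wells for full effect; inactives centre near -20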
Arbovirus anti repeat = further read-out of Arbovirus anti, marked with its call; inhibition, %; measured here: 10K subset replicate screen; many hits read low in the repeat;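 first of two repeat runs on a subset; 0% = infected and 100% = uninfected wells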
* marks the source's active call; other numbers are inactive results; ? = inconclusive; · = no result given. The list is partial, so the mix of outcomes need not match the whole.

SMILES	Mtb H37Rv	RecA intein inh	Arbovirus anti	Mtb betalactam	YopH inh	others
O=C(Nc1ccc(CN2CCCCC2)cc1)c1c(F)c(F)c(F)c(F)c1F	44%	-2.5	-15	93	·
O=C1N[C@@H](Cc2ccccc2)[C@@H](c2ccco2)O1	1%	0.5	·	-12	·
O=C(COC(=O)c1cnccn1)Nc1ccc(Cl)cc1	-12%	2.2	0	-6	-39
COc1ccc(-c2n[nH]c(=S)n2/N=C/c2cccn2C)cc1	2%	3.7	·	-8	·
COc1ccc(C(=O)CN2C(=O)c3ccccc3C2=O)cc1	-4%	-0.4	·	-9	·
COc1cccc(N=Nc2c(N)[nH]n3c(=O)c4c(nc23)CCCC4)c1	19%	4.4	-16	12	·
Cc1ccc(CSCC(Nc2ccc(C(=O)O)cc2[N+](=O)[O-])C(=O)O)cc1 (stereo not given)	-6%	2.8	6	13	-60
COc1ccc(N2C(=O)CC(SC(C)C)C2=O)cc1 (stereo not given)	2%	-0.7	-1	5	-29
O=C1C(O)CC2c3ccccc3CC3(CCCC3)N12 (stereo not given)	-12%	0.3	5	-5	-58	Arbovirus anti repeat=-1
COc1ccc2c(c1)c(CC(=O)OCC(=O)N(C)C)c(C)n2C(=O)c1ccc(Cl)cc1	·	4.9	·	4	·
COc1ccc(-c2nc3c(-c4ccccc4)cnn3cc2C)cc1F	4%	-0.5	5	9	·
CC(=O)Oc1ccccc1C(=O)N(C1CCCCC1)C1CCCCC1	·	5.8	·	3	·
O=C(CNS(=O)(=O)c1ccccc1)NCc1cccnc1	3%	1.7	-2	2	·
CCNC(=O)COc1ccc(CC)cc1	-1%	3.2	-1	-1	-17
O=C(COC(=O)C1CCN(c2ccc(C(F)(F)F)cn2)CC1)NCc1ccc(Cl)cc1Cl	·	4.2	·	-1	·

Next part (2 carried over from the part before).
SMILES	Mtb H37Rv	RecA intein inh	Arbovirus anti	Mtb betalactam	YopH inh	others
CCNC(=O)COc1ccc(CC)cc1	-1%	3.2	-1	-1	-17
O=C(COC(=O)C1CCN(c2ccc(C(F)(F)F)cn2)CC1)NCc1ccc(Cl)cc1Cl	·	4.2	·	-1	·
COc1ccc(OC)c(NC(=O)c2ccc(-n3cccn3)nc2)c1	-4%	1.5	6	0	-25
CC/C(C)=N\NC(=O)CNC(=O)c1ccc(Cl)cc1Cl	-3%	-2.1	8	-5	·
N#Cc1c(-c2ccccc2)c(-c2ccccc2)nn(CC(=O)NNC(=O)Nc2ccccc2)c1=O	·	8.8	-17	-9	-2
Cc1nc(NC(=O)c2ccccc2)sc1-c1csc(Nc2ccc(C(=O)O)cc2)n1	19%	-4.4	·	·	·
Cc1oc(-c2cc3c(cc2Cl)OCO3)nc1CN1CCCC1c1ccc(F)cc1 (stereo not given)	-1%	4.8	0	21	·
Cn1c(=O)c2c(nc(NCCOc3ccc(F)cc3)n2C)n(C)c1=O	1%	0.6	3	0	·
COc1ccc(CNC(=O)C(=O)c2cn(CC(=O)N3CCCC3)c3ccccc23)cc1	·	-0.1	·	-2	·
CC1CCCCC1NC(=O)c1nn(C)c(=O)c2ccccc12 (stereo not given)	2%	-2.6	5	-3	-24
O=[N+]([O-])c1ccc2c(c1)/C(=N\O)c1ccccc1-2	3%	-0.7	·	3	·
NCC(CC(=O)O)c1ccc(Cl)cc1 (stereo not given)	2%	-2.6	-1	5	16
O=C(/C=C/c1ccccc1)NCCc1c[nH]c2ccccc12	·	2.8	·	-4	·
CCN(CC)S(=O)(=O)c1ccc(N2CCc3cc(OC)c(OC)cc3C2)nc1	·	-0.4	·	4	·
COc1cccc(CN2CCCC(C(=O)c3ccc4c(c3)OCO4)C2)c1OC (stereo not given)	4%	1.3	5	-2	·
COc1cccc(OCCNC(=O)CSc2ccc(C(F)(F)F)cc2[N+](=O)[O-])c1	-3%	-0.7	0	1	-13
Oc1cccc(-n2nnnc2SCc2ccccc2F)c1	·	5.1	·	6	·

21 successive entries out of the list so far, quoted:
SMILES	Mtb H37Rv	RecA intein inh	Arbovirus anti	Mtb betalactam	YopH inh	others
COc1ccc2c(c1)c(CC(=O)OCC(=O)N(C)C)c(C)n2C(=O)c1ccc(Cl)cc1	·	4.9	·	4	·
COc1ccc(-c2nc3c(-c4ccccc4)cnn3cc2C)cc1F	4%	-0.5	5	9	·
CC(=O)Oc1ccccc1C(=O)N(C1CCCCC1)C1CCCCC1	·	5.8	·	3	·
O=C(CNS(=O)(=O)c1ccccc1)NCc1cccnc1	3%	1.7	-2	2	·
CCNC(=O)COc1ccc(CC)cc1	-1%	3.2	-1	-1	-17
O=C(COC(=O)C1CCN(c2ccc(C(F)(F)F)cn2)CC1)NCc1ccc(Cl)cc1Cl	·	4.2	·	-1	·
COc1ccc(OC)c(NC(=O)c2ccc(-n3cccn3)nc2)c1	-4%	1.5	6	0	-25
CC/C(C)=N\NC(=O)CNC(=O)c1ccc(Cl)cc1Cl	-3%	-2.1	8	-5	·
N#Cc1c(-c2ccccc2)c(-c2ccccc2)nn(CC(=O)NNC(=O)Nc2ccccc2)c1=O	·	8.8	-17	-9	-2
Cc1nc(NC(=O)c2ccccc2)sc1-c1csc(Nc2ccc(C(=O)O)cc2)n1	19%	-4.4	·	·	·
Cc1oc(-c2cc3c(cc2Cl)OCO3)nc1CN1CCCC1c1ccc(F)cc1 (stereo not given)	-1%	4.8	0	21	·
Cn1c(=O)c2c(nc(NCCOc3ccc(F)cc3)n2C)n(C)c1=O	1%	0.6	3	0	·
COc1ccc(CNC(=O)C(=O)c2cn(CC(=O)N3CCCC3)c3ccccc23)cc1	·	-0.1	·	-2	·
CC1CCCCC1NC(=O)c1nn(C)c(=O)c2ccccc12 (stereo not given)	2%	-2.6	5	-3	-24
O=[N+]([O-])c1ccc2c(c1)/C(=N\O)c1ccccc1-2	3%	-0.7	·	3	·
NCC(CC(=O)O)c1ccc(Cl)cc1 (stereo not given)	2%	-2.6	-1	5	16
O=C(/C=C/c1ccccc1)NCCc1c[nH]c2ccccc12	·	2.8	·	-4	·
CCN(CC)S(=O)(=O)c1ccc(N2CCc3cc(OC)c(OC)cc3C2)nc1	·	-0.4	·	4	·
COc1cccc(CN2CCCC(C(=O)c3ccc4c(c3)OCO4)C2)c1OC (stereo not given)	4%	1.3	5	-2	·
COc1cccc(OCCNC(=O)CSc2ccc(C(F)(F)F)cc2[N+](=O)[O-])c1	-3%	-0.7	0	1	-13
Oc1cccc(-n2nnnc2SCc2ccccc2F)c1	·	5.1	·	6	·

Next part:
SMILES	Mtb H37Rv	RecA intein inh	Arbovirus anti	Mtb betalactam	YopH inh	others
COC(=O)C1CN(C(=O)COc2ccccc2C)c2ccccc2O1 (stereo not given)	·	-0.5	·	7	·
O=C(Nc1ccccc1)C1CCCN1S(=O)(=O)c1cccs1 (stereo not given)	·	5.9	·	-11	·
COCCNC(=O)COc1ncnc2ccc(Br)cc12	-6%	-0.6	7	2	1
CC(C)(C)CNC(CO)C12CC3CC(CC(C3)C1)C2 (stereo not given)	-2%	1.9	-5	-5	5
CC1CCN(CC(=O)NC(=O)NCc2ccccc2)CC1	0%	-3.4	-2	0	-16
Cc1c(C(=O)NNC(=O)c2ccccc2O)oc2ccc(Br)cc12	·	0.6	·	0	·
COc1cccc(C(=O)Nc2nnc(-c3cccs3)o2)c1	?	3.4	3	88	-25	Arbovirus anti repeat=-6
CCN(CC)S(=O)(=O)c1ccc(OC)c(NC(=O)C(Cc2ccccc2)N2C(=O)c3ccccc3C2=O)c1 (stereo not given)	-10%	-2.7	-3	-5	-24
O=C1CCCC(=O)N1c1ccc(Oc2ccc(Cl)cc2)cc1	-1%	0.7	-2	1	-7
O=C(O)c1nc(NCc2ccccc2)ncc1Cl	·	-8.0	·	10	·
CCOC(=O)C1CCN(C(=O)c2cc3c(-c4ccc(OC)c(OC)c4)nn(C)c3s2)CC1	11%	2.8	-2	-1	-14	Arbovirus anti repeat=-4
CN(C)CCCN(C(=O)c1ccc2c(c1)CCCC2)c1nc2c(F)cccc2s1	12%	29	4	?	-5
Cc1[nH]n2c(=O)cc(C(C)C)nc2c1-c1ccccc1	·	-1.5	-24	98	-41
COc1ccc(CNCCC(c2ccc(OC(C)C)cc2)c2ccccc2OC)cc1 (stereo not given)	·	17	·	100	·
COc1ccc(-c2cc3ccccc3[nH]2)cc1	-3%	1.6	·	6	·
Cc1oc2c(C)c3oc(=O)c(CCC(=O)NCCCCCC(=O)O)c(C)c3cc2c1C	·	-9.9	·	-5	·
O=C(NC1CCN(S(=O)(=O)c2ccccc2C(F)(F)F)CC1)c1ccco1	·	1.6	·	2	·
NC1=NC(=O)/C(=C/c2ccccc2OS(=O)(=O)c2ccc3ccccc3c2)S1	1%	-7.6	-4	-1	-7
Cc1ccccc1CCNC(=O)CCn1ccc2cc(S(=O)(=O)N3CCCC3)ccc21	·	1.0	·	0	·
CC(C)C[C@@H](CO)N1CCN(Cc2cccnc2)CCC1=O	·	-4.2	·	-3	·
COc1ccc(N/C(N)=N/c2nc(C)cc(=O)[nH]2)cc1	·	-1.0	·	2	·
O=c1c(Cc2ccc(Cl)cc2Cl)c(O)ccn1CC(F)(F)F	·	2.4	·	-1	·
CCn1c(SCC(=O)Nc2nccs2)nnc1-c1ccco1	-8%	·	-2	6	·
Cc1ccccc1OCCCN1CCCC1	-9%	-1.2	0	-1	-44
CCNC(=O)CSc1nc2ccccc2c(=O)n1OC	-5%	0.8	11	-8	-37
CC(NC(=O)c1cn(C)c2ccc(S(=O)(=O)N3CCCC3)cc2c1=O)c1ccccc1 (stereo not given)	·	2.5	·	-8	·
Cc1ccc(CN2CCN(C(=O)c3ccncc3)CC2)cc1	-5%	-0.9	14	8	·
CC(=O)NC1(C(F)(F)F)C(=O)Nc2c1c(=O)n(C)c(=O)n2C (stereo not given)	-5%	·	4	-7	-55
Cc1cccc(C)c1NC(=O)CNC(=O)c1ccccc1OCc1ccccc1	·	1.1	·	-12	·
O=C(CCS(=O)(=O)c1ccc2c(c1)NC(=O)CO2)NCc1ccccc1	·	-3.4	·	1	·
CCC(=O)Nc1c2c(nn1-c1ccc(F)cc1)CS(=O)C2 (stereo not given)	2%	0.1	5	-3	-33	Arbovirus anti repeat=8
CCCC(CCC(=O)Nc1ccn(-c2ccccc2)n1)C(=O)O (stereo not given)	-3%	-3.9	·	10	·
CCOC(=O)N1CCN(C(=O)c2ccc3c(=O)n(Cc4ccccc4OC)c(=S)[nH]c3c2)CC1	4%	-0.8	6	?	-25
Cc1ccnc2ccc(SC(F)(F)F)cc12	6%	-1.1	3	3	·
COc1ccc(-c2nc(-c3ccc(Br)o3)no2)cc1OC	2%	1.1	19	-2	-19	Arbovirus anti repeat=13
Cc1c(C(=O)N/N=C/c2ccccn2)nnn1-c1nonc1N	·	-1.2	·	1	·
CN1CCN(C(=O)c2ccc3c(c2)N(Cc2ccccc2)CCS3)CC1	·	-0.2	·	-8	·
Cc1cc(=O)[nH]c2c(C)c(N)ccc12	-5%	-3.0	5	7	-14
Cc1ccc(-n2c(SC3CCOC3=O)nc3ccccc3c2=O)cc1 (stereo not given)	8%	-1.9	5	0	·
O=S(=O)(Nc1nc2ccccc2nc1Nc1ccc(N2CCOCC2)cc1)c1cc(Cl)ccc1Cl	>100µM*	-12	4	0	-17
O=C(COc1cc(Cl)c(Cl)cc1Cl)Nc1ccc([N+](=O)[O-])cc1Cl	-7%	3.1	·	1	·
O=C(COc1ccc(Cl)cc1)N1CCCC1	-14%	0.4	4	6	-30
Cc1ccc(Cl)c2sc(N3CCN(C(=O)c4ccco4)CC3)nc12	·	-1.3	·	11	·
Cc1ncc(CN2CCCCC2C(=O)Nc2ccc(Oc3ccccc3)nc2)cn1 (stereo not given)	·	-1.2	·	-15	·
Cc1cc(C)c(S(=O)(=O)N(C)Cc2cnn(C)c2)c(C)c1	-3%	1.4	2	-2	2
Cc1ccc(/C=N/Nc2nc3ccccc3s2)o1	?	-2.2	27	89	-40
COc1ccccc1-c1cc(C(=O)Nc2cccnc2Cl)no1	·	-0.9	·	5	·
CCc1ccc(NC(=O)c2[nH]c(C)c(C(C)=O)c2C)cc1	·	0.2	·	7	·
O=C(O)c1ccccc1C(=O)Nc1n[nH]c(=S)s1	-4%	-1.1	2	-4	-31
O=C(NCc1cccnc1)c1c(F)c(F)c(F)c(F)c1F	-7%	0.1	3	-12	-56
Cc1ccc(N2C(=O)CC(Sc3ccccc3C(=O)O)C2=O)cc1C (stereo not given)	2%	1.5	5	0	·
COc1cccc(N2C(=O)CC(NNc3nc4ccccc4s3)C2=O)c1 (stereo not given)	-4%	2.3	·	-2	·
Clc1ccccc1-c1nnc2sc(-c3ccc4c(c3)OCO4)nn12	3%	0.5	-17	·	15
